Compound activity (PubChem BioAssay)
CRE-bla Fsk – CRE-bla signaling modulation under forskolin stimulation. CHO CRE-bla reporter (cAMP response element driving beta-lactamase), forskolin EC10, beta-lactamase ratio. Potency, µM (top dose mostly 38.2 µM), without a hit: top-dose activity change, negative = inhibition, usual class: activators. hit rate 2.5% among 71,000. AID 662; active = well fitted activation curve with a large enough effect in the signal ratio, with a control signal flat, not every such curve was filed as active; inconclusive = small, poorly fitted or top-dose-only effect, or effect the other way, or a change in a side signal; the % refers to the signal ratio; note: potency is the fitted concentration of half-maximal effect; % of control where 0% means no effect
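Modulation of forskolin-driven signalling is measured in CHO cells carrying a CRE-controlled beta-lactamase reporter. Cells are stimulated with EC10 NKH 477 in the presence of titrated compound for 3 h at 37 °C, then loaded with CCF4 for 2 h at room temperature.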
USP2a inhib – inhibitors of human ubiquitin-specific protease USP2a | O75604 | USP2a enzymatic assay, qHTS inhibition | Potency, µM (titrated, usually from 38.3 µM), inactives show at the top dose activity change, negative = inhibition, hits mostly inhibitors | hit rate 0.1% among 60,000;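 note: potency is the fitted concentration of half-maximal effect; nearly all actives have a fitted effect of over 60% in size; plate controls were DMSO for no effect and NEM full inhibition control for full effect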
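Inhibition is measured in a cell-free coupled assay with 20 nM USP2 core, 20 nM Ub-PLA2 and 20 uM NBD C6-HPC, 2.5 h incubation. Activity normalized to NEM control.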
BRCT inh green – blocks human BRCA1 BRCT binding to phosphopeptide, green readout. Potency, µM (titrated, usually from 76.9 µM), without a hit: at the top dose activity change, negative = inhibition, hits mostly inhibitors. hit rate 0.05% among 75,000. P38398. BRCA1 BRCT-phosphopeptide binding, green fluorescence polarization;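 note: potency is the fitted concentration of half-maximal effect; plate controls were peptide without protein for full effect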
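Fluorescence polarization: His-tagged BRCT (~35 kDa BRCA1 C-terminus, 250 nM) bound to 100 nM fluorescein-labeled phosphorylated 10-aa BACH1 peptide, pH 7.3 phosphate buffer with DTT and Tween 20. Compounds incubated 12 min at room temperature; inhibition read as lowered polarization.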
Luciferase inh – inhibitors of firefly luciferase; hit rate 2.2% among 72,000; Potency, µM (highest dose often 57.1 µM), without a hit: at the top dose activity change, negative = inhibition, most hits filed as inhibitors; purified firefly luciferase, luminescence, 8 min; AID 411; P08659; note: potency is the fitted concentration of half-maximal effect; % is set by controls: 0 for no effect and ±100 for the full control effect; nearly all actives have a fitted effect of over 40% in size
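Inhibition of light generation by firefly luciferase from ATP and luciferin was profiled with concentration-response curves per sample, ATP held at 10 uM within the enzyme's linear range. Plates were read by luminescence after an 8-minute ambient incubation.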
ERK AVP inh – blocks ERK signaling stimulated by vasopressin; Potency, µM (doses to about 57.5 µM), inactives show at the highest dose activity, negative = inhibition, hits mostly inhibitors; hit rate 0.99% among 72,000; HEK293-V1b, vasopressin-stimulated pERK AlphaScreen; note: potency is the fitted concentration of half-maximal effect; % is set by controls: 0 for no effect and ±100 for the full control effect; nearly all actives have a fitted effect of over 55% in size
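V1b-HEK293 cells; cpd 30 min 37C; 25 nM vasopressin 5 min; lyse 10 min; AlphaScreen beads 5 hr RT. Normalized to DMSO basal and 25 nM vasopressin; AC50 by Hill fit.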
Tau fil binding – binds recombinant human tau filaments; Potency, µM (doses to about 57.1 µM), inactives show at the top dose activity change, negative = inhibition; AID 596; hit rate 2% among 71,000; recombinant tau filaments, thioflavin S fluorescence, 15 h; filaments grown with octadecylsulfate alongside compound; P10636;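 note: potency is the fitted concentration of half-maximal effect; % is set by controls: 0 for no effect and ±100 for the full control effect; actives lower thioflavin S fluorescence by blocking filaments or displacing dye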
Target sequence (P10636 whole entry, looked up): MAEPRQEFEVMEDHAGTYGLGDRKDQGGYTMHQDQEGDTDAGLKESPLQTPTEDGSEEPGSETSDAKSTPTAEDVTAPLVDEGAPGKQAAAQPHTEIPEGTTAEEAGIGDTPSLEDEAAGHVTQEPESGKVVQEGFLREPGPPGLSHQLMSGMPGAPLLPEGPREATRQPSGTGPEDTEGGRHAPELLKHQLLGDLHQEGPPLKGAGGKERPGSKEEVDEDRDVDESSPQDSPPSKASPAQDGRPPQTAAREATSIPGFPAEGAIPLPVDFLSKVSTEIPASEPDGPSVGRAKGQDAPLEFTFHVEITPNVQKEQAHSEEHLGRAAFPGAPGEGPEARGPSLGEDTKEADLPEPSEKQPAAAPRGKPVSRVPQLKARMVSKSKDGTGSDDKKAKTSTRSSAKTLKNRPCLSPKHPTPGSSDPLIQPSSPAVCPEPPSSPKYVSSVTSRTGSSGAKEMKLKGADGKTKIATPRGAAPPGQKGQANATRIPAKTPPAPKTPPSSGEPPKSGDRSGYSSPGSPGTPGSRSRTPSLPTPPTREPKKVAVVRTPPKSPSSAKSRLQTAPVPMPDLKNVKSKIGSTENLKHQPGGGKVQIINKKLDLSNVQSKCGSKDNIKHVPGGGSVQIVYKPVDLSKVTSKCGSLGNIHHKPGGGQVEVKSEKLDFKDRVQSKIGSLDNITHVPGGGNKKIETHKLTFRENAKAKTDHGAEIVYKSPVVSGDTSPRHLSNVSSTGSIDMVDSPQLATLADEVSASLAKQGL
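Read-out: ThS fluorescence, 450 nm excitation/510 nm emission; lower signal marks blocked filament formation or displaced dye. Tau at 1 uM with 30 uM ODS, 10 uM ThS, 5 mM DTT, 100 mM NaCl, 10 mM HEPES pH 7.4; 15 h, 37 C.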
A350 fluor – compounds fluorescent in Alexa 350 spectral region; Compound autofluorescence, 340/450 nm, Alexa 350 dye-equivalents; hits give high values; max dye-equivalent concentration, M; hit rate 11% among 59,000; in the data active = max dye-equivalent concentration above about 10 nM; inconclusive = mostly about 1.1 nM to 9.6 nM
Caspase-1 inhib – blocks human caspase-1 allosterically or competitively; P29466; Caspase-1 enzyme, Ac-WEHD-AFC fluorogenic rate; Potency, µM (titrated, usually from 57.5 µM), for the others: at the top dose activity change, negative = inhibition, hits mostly inhibitors; hit rate 0.03% among 75,000;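 note: potency is the fitted concentration of half-maximal effect; plate controls were vehicle for no effect and no substrate for full effect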
Caspase-7 inhib – blocks human caspase-7 allosterically or competitively | AID 889 | Potency, µM (doses to about 57.5 µM), for inactives: top-dose activity change, negative = inhibition, hits mostly inhibitors | P55210 | hit rate 0.02% among 75,000 | recombinant caspase-7, Ac-DEVD-AFC fluorescence rate; active = well fitted inhibition curve with a large enough effect in the main read-out, with a control signal flat, not every such curve was filed as active; inconclusive = small, poorly fitted or top-dose-only effect, or a change in a side signal; note: potency is the fitted concentration of half-maximal effect; % of control where 0% means no effect
Target sequence (P55210 24-198 limits assumed): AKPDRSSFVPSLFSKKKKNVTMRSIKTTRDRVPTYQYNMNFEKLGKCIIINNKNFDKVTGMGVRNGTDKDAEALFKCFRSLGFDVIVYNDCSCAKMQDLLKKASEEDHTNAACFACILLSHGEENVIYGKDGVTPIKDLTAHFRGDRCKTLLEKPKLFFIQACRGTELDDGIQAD
Target sequence (P55210 207-303 limits assumed): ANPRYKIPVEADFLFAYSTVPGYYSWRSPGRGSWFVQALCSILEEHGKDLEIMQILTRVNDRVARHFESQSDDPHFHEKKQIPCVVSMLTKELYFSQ
BRCT PPI red – BRCT-phosphoprotein interaction inhibition (red fluorophore); P38398; BRCT-phosphopeptide binding, red fluorescence polarization; Potency, µM (titrated, usually from 76.9 µM), inactives show at the highest dose activity change, negative = inhibition, actives largely listed as inhibitors; hit rate 0.03% among 75,000; AID 892; note: % is set by controls: 0 for no effect and ±100 for the full control effect
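Fluorescence polarization: 100 nM His-tagged BRCA1 BRCT with 100 nM TAMRA-labelled phospho-BACH1 decapeptide, phosphate buffer pH 7.3 with 150 mM NaCl, DTT, 0.01% Tween 20; 12 min RT. Binding inhibition seen as FP decrease.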
Active calls of the source: *; i = inactive; ? = inconclusive; · = not tested or not shown; & = joins results of further samples; ! = not confirmed by another sample; [ ] = dose if it differs, or a comment. Unless noted, calls come from the whole dose curve; as a rule, active = well fitted curve in the direction sought with a large enough effect; inconclusive = small, poorly fitted or top-dose-only effect, or another doubt; inactive = no such curve, though single readings can be large; an effect the other way counts as inactive or inconclusive. A portion of the library, so the mix of outcomes need not match the whole.

SMILES	CRE-bla Fsk	USP2a inhib	BRCT inh green	Luciferase inh	ERK AVP inh	Tau fil binding	A350 fluor	Caspase-1 inhib	Caspase-7 inhib	BRCT PPI red
C/C=C/C=C/C=O	?	·	-1.1%	·	-3%	11%	·	-3%	-4%	-1.6%
O=C(/C=C1\NC2(CCCC2)Cc2ccccc21)N1CCOCC1	-24%	11%	-1.9%	1%	-11%	12%	?	0%	-2%	-2.5%
CC(C)COCC(CN(Cc1ccccc1)c1ccccc1)N1CCCC1 (centres undefined)	·	-4%	-0.8%[3.08 µM]	·	4%	·	·	2%	-1%	-1.2%
c1ccc(C2C3=C(CCCC3)Nc3ncnn32)cc1 (centres undefined)	-2%	-15%	-1.5%	1%	-18%	0%	?	0%	-6%	-0.7%
c1ccc(CSCc2ccccc2)cc1	10%	·	-0.3%	·	10%	7%	·	-3%	0%	0.2%
CC(C)=CCl	-11%	·	-1.7%	·	13%	0%	·	-1%	0%	0.8%
O=S(=O)(O)n1ccnc1 (tested in a mixture with another compound)	9%[7.6 µM]	·	0.3%[15.4 µM]	1%[11.4 µM]	-12%[11.5 µM]	2%[11.4 µM]	i	-2%[11.5 µM]	1%[11.5 µM]	0.1%[15.4 µM]
Cc1[nH]n2c(=O)c3c(nc2c1-c1ccccc1)CCCC3	?	5%	-1.3%	1%	1%	10%	i	0%	0%	-0.3%
O=C(NCc1ccco1)C1(S(=O)(=O)c2ccc(Cl)cc2)CC1	-4%	2%	-2.2%	2%	9%	-1%	i	1%	3%	-1.0%
CC(C)C1=CC2=CC[C@@H]3[C@@](C)(C(=O)O)CCC[C@]3(C)C2CC1 (some centres undefined)	·	·	-1.5%	·	-6%	·	·	0%	0%	0.4%

In the list so far, 2 have a halogen:
SMILES	CRE-bla Fsk	USP2a inhib	BRCT inh green	Luciferase inh	ERK AVP inh	Tau fil binding	A350 fluor	Caspase-1 inhib	Caspase-7 inhib	BRCT PPI red
CC(C)=CCl	-11%	·	-1.7%	·	13%	0%	·	-1%	0%	0.8%
O=C(NCc1ccco1)C1(S(=O)(=O)c2ccc(Cl)cc2)CC1	-4%	2%	-2.2%	2%	9%	-1%	i	1%	3%	-1.0%

The listing continues:
SMILES	CRE-bla Fsk	USP2a inhib	BRCT inh green	Luciferase inh	ERK AVP inh	Tau fil binding	A350 fluor	Caspase-1 inhib	Caspase-7 inhib	BRCT PPI red
CCn1c(=N)n(CC(=O)OC)c2ccccc21	?	13%	-2.2%	4%	-14%	-15%	i	-1%	-2%	0.6%
COc1cc(-c2ccc(N=C=O)c(OC)c2)ccc1N=C=O	-1%	·	-7.6%	·	-8%	16µM*	·	-1%	-1%	1.0%
CCc1cc(Cl)c(OC)c(C(=O)NC[C@@H]2CCCN2CC)c1O	-11%[17.1 µM]	5%[17.1 µM]	-0.8%[34.4 µM]	3%[25.5 µM]	0%[25.7 µM]	-27%[25.6 µM]	i	-4%[25.7 µM]	-3%[25.7 µM]	0.6%[34.4 µM]
COc1ccc(CCN(C)CCCN2CCc3cc(OC)c(OC)cc3CC2=O)cc1OC	·	·	0.3%	·	10%	·	·	-1%	-2%	-0.9%
Cc1cc(C)c2c(CC(=O)Nc3ccc(Cl)cn3)coc2c1	6%	9%	-2.0%	-1%	19%	45%	i	-4%	-5%	-0.6%
CCC(c1nnnn1Cc1ccco1)N1CCN(c2cc(Cl)ccc2C)CC1 (centres undefined)	-7%	-10%	-3.1%	1%	18%	5%	i	0%	-3%	-0.5%
Fc1ccc(-c2cc3nc(-c4ccccc4)cc(N4CCN(CCN5CCOCC5)CC4)n3n2)cc1	10µM*	53%[activator]	2.5%	1%	-19%	109%	3.5e-07M*	?	-25%	0.8%
CCC(NS(=O)(=O)c1c(C)[nH]c(=O)[nH]c1=O)C12CC3CC(CC(C3)C1)C2 (centres undefined)	19%	21%	-1.4%	1%	11%	6%	?	-1%	-1%	0.0%
CCSC(=N)N	?	-9%&0%	-2.5%[3.08 µM]	0%&-9%	-14%&-9%&-5%	?	i	-1%&-3%&-2%	2%&3%&1%	2.0%&-2.5%&1.1%
Cc1[nH]n2c(=O)c3c(nc2c1-c1ccccc1)CCC3	24%	-4%	-2.6%	0%	-15%	-4%	i	-1%	1%	0.9%
O=C(Nc1ccc2c(c1)Cc1ccccc1-2)c1ccco1	-9%	2%	-1.4%	10µM*	?	28%	?	-3%	2%	-0.1%
C=CC(=C)CCC=C(C)C	1%	·	0.6%	·	8%	-2%	·	-1%	1%	0.9%
COc1ccc(CC(=O)c2cc(OC)c(OC)cc2CC(=O)O)cc1OC	-2%	-3%	0.7%	0%	-18%	-3%	·	-1%	0%	-1.2%
CN(C)S(=O)(=O)c1cccc(-c2cn3ccccc3n2)c1	?	7%	0.1%	-17%	-18%	-6%	i	3%	0%	-3.5%
CCCC(c1nnnn1Cc1ccco1)N1CCN(c2cc(Cl)ccc2C)CC1 (centres undefined)	0%	?	1.6%	2%	31%	13%	i	-2%	·	-4.6%
COc1ccc(-n2c(=S)[nH]c3cc(C(=O)NCc4ccco4)ccc3c2=O)cc1OC	0%	-4%	-4.3%	1%	-8%	7%	?	-3%	1%	0.9%
COCCC(=O)N(Cc1ccc2c(c1)OCO2)C(C(=O)NC1CCCCC1)c1ccncc1 (centres undefined)	-4%	·	0.8%	-1%	?	2%	i	-1%	3%	-1.0%
Cc1ccccc1NC(=O)C1CC(Cl)=CCC1C(=O)O (centres undefined)	-7%	0%	-2.6%	1%	5%	8%	·	-3%	2%	-1.1%
O=C(c1ccccc1)c1ccccc1	-4%	·	-4.5%	·	-10%	7%	·	0%	0%	0.4%
CC(=O)Nc1ccc(OC[C@@H](O)CNC(C)C)cc1	?	-4%[17.1 µM]	-1.6%	-2%	4%	40µM*!	i	2%	1%	2.3%
CC(C)COC[C@H](CN(Cc1ccccc1)c1ccccc1)N1CCCC1	-16%[17.1 µM]	-7%[17.1 µM]	-1.8%[34.4 µM]	6%[25.5 µM]	14%[25.7 µM]	-22%[25.6 µM]	?	2%[25.7 µM]	-3%[25.7 µM]	0.2%[34.4 µM]
NS(=O)(=O)c1cc2c(cc1Cl)N[C@@H]([C@@H]1C[C@@H]3C=C[C@H]1C3)NS2(=O)=O	?	14%	-1.3%	0%&-8%	-7%	?	i	-13%	-2%	-3.0%
CCOC(=O)C1CCN(C(=O)NC23CC4CC(CC(C4)C2)C3)CC1	7%	7%	-0.8%	0%	-3%	0%	i	4%	-2%	1.5%
CCOC(=O)N1CCN(C(=O)NC23CC4CC(CC(C4)C2)C3)CC1	17%	4%	-0.7%	0%	-1%	13%	·	-3%	-1%	-0.4%
c1ccc(-c2nc(CSc3nnnn3-c3ccccc3)cs2)cc1	7%	-8%	1.9%	4%	20%	9%	i	0%	-3%	0.7%
CCCCN1C2=NCCCN2c2cc(C)c(C)cc21	-2%	8%	2.4%	4%	20%	34%	i	-1%	-1%	-0.1%
O=C(CCN1C(=O)c2ccccc2C1=O)Nc1ccc(F)cc1F	6%	-5%	-0.7%	-1%	-5%	-1%	?	0%	-1%	-1.6%
O=C(Nc1ccccc1)Nc1ccccc1	-11%	4%	2.3%	·	1%	3%	·	1%	2%	1.0%
O=C(NCC(=O)N(CCc1ccccc1)C(C(=O)NC1CCCC1)c1cccnc1)c1ccco1 (centres undefined)	?	8%	-1.3%	1%	-26%	1%	i	1%	7%	1.1%
Fc1cccc(Cl)c1CSc1ncn[nH]1	11%	3%	0.1%	1%	2%	1%	·	-2%	1%	-0.2%
O=Cc1ccccc1Cl	0%	·	-0.8%	·	25%	1%	·	-3%	1%	0.1%
CC(=O)Nc1nc(C)c(-c2csc(Nc3ccc(O)cc3)n2)s1	-21%	?	-1.1%	-11%	-5%	?	i	0%	-2%	-0.6%
COCCn1c(SCc2nc3sc(C(=O)OC)c(C)c3c(=O)[nH]2)nc2ccccc21	0%	41%[activator]	10%	4%	18%	-14%	i	-3%	-2%	-0.1%
CC(C)C(c1nnnn1Cc1ccco1)N1CCN(c2cccc(Cl)c2)CC1 (centres undefined)	?	-14%	-0.5%	-28%	-1%	8%	i	-1%	3%	0.6%
NC1CCN(c2cccc(Cl)n2)CC1	?	0%	-1.0%&-1.1%	1%&5%	5%&25%	?	i	0%&-5%	3%&1%	-2.8%&0.6%
O=C1CCCCC1	-6%	·	0.4%	·	-3%	2%	·	-4%	-1%	0.5%
COc1ccccc1N(C(=O)c1snc(C(N)=O)c1N)C(C(=O)NCCC(C)C)c1ccco1 (centres undefined)	-1%	·	-0.9%	-1%	1%	213%	2.2e-07M*	?	-19%	1.5%
Cc1onc(-c2ccccc2)c1C(=O)Nc1ccccc1C#N	?	·	-3.9%	1%	-9%	2%	·	1%	-1%	0.7%
CCOC(C)OCC	5%	·	-0.1%	·	13%	6%	·	-6%	-1%	0.5%
COc1ccc(C2C3=C(Nc4ncnn42)c2ccccc2CCC3)cc1 (centres undefined)	17%	4%	2.2%	0%	-2%	-3%	1.5e-08M*	-4%	0%	0.4%
CS(=O)(=O)N(CC(=O)N1CCCC1)c1ccc(OCc2ccccc2)cc1	3%	6%	0.3%	-2%	-9%	-2%	i	-1%	0%	-0.4%
